Screens: PubChem BioAssay, Center for Chemical Genomics, University of Michigan
CDC25B-CDK2 inh: primary biochemical HTRF screen for blockers of M-phase inducer phosphatase 2 binding to CDK2/cyclin A; z-score (no concentration beside the values); 0.72% of 94,000 active; HTRF CDC25B-CDK2/CyclinA binding, anti-His/anti-Flag; hits give high values;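 note: score is relative to mean and SD of negative controls; strong numbers were not always called active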
HIV TAR-Tat: TAR RNA-Tat peptide displacers, HIV-1, primary screen, biochemical, FRET, FAM/TAMRA-labeled Tat; HIV-1 TAR RNA, Tat peptide displacement FRET; hits give high values; z-score (no concentration beside the values); 0.6% of 100,000 active;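 note: score is relative to mean and SD of negative controls; some compounds called inactive have numbers as strong as hits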
* hit, by the source's call; nt = not tested or not shown.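 Rule for the calls: active = z-score from 3 up in half or more of its runs; inactive = the rest.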

SMILES | CDC25B-CDK2 inh | HIV TAR-Tat
COc1ccc(C2=CC(=O)N(c3ccccc3)C(c3ccccc3)O2)cc1 (stereo not drawn) | -0.4 | nt
CCSc1nc2c(c(=O)[nH]1)C(c1ccc(OC(C)C)cc1)CC(=O)N2 (stereo not drawn) | -2.91 | -1.33
CC1CCN(C(=O)CCS(=O)(=O)c2cccc3nsnc23)CC1 | -1.59 | 0.55
Cc1cc(C)cc(Oc2c(C(F)(F)F)oc3cc(O)ccc3c2=O)c1 | -0.33 | -1.4
O=C(Cn1nc2c3sccc3ncn2c1=O)Nc1ccc2c(c1)OCCO2 | nt | 0.47
Cc1ccc2nc(-c3ccccc3)cn2c1 | -0.96 | 1.62
CN(C)S(=O)(=O)Oc1ccc(-c2noc(-c3cc(C(C)(C)C)nn3Cc3ccccc3)n2)cc1 | -2.21 | nt
CCc1ccc(-n2ccc(=O)c(C(=O)Nc3nnc(SC)s3)n2)cc1 | 0.35 | 2.96
CCN1CCN(c2ncc3c(n2)CCN(Cc2ccccc2F)C3)CC1 | nt | 1
C/C=C(\C)C(=O)NC(=S)NNC(=O)c1ccc(N(C)C)cc1 | -2.04 | nt
C#CCN1C(=O)C(O)(CC(=O)c2ccc(C(C)C)cc2)c2ccccc21 (stereo not drawn) | -2.02 | -1.68
CN(c1ccc(Cl)cc1)S(=O)(=O)c1nnc(NC(=O)C(C)(C)C)s1 | -1.42 | 0.63
CCOC(=O)c1nc2cc3c(cc2[nH]c1=O)n(C)c(=O)n3C | -2.13 | -4.92
O=C(O)c1ccc(C2SCC(=O)N2CCc2ccccc2)cc1 (stereo not drawn) | -1.01 | nt
CCOC(=O)c1cc(CC)sc1NC(N)=O | -1.69 | 1.44
CCC(C)NS(=O)(=O)c1cc2c(cc1C)N(C)CCO2 (stereo not drawn) | nt | 1.61
O=C1c2cccnc2C(=O)N1Cc1ccc(S(=O)(=O)N2CCCCC2)s1 | nt | -0.25
CC1CCCN(c2nn3c(=O)c(C(=O)NCCN4CCCCC4)cnc3s2)C1 (stereo not drawn) | nt | -0.71
O=C(c1cccc(Cl)c1)N1N=C(c2ccc(Cl)cc2)CC1(O)C(F)(F)F (stereo not drawn) | -2.71 | nt
CCCOc1ccccc1Nc1cc(C)ncn1 | -1.09 | 0.53
O=C1Nc2ccccc2C1(O)Cc1ccncc1 (stereo not drawn) | -1.93 | nt
CC(C)C(=O)N1c2ncnn2C2(CCCCC2)[C@@H]2CCCC[C@@H]21 | -0.23 | 1.85
Cc1ccc(C)c(NC(=O)N2CCC3(CC2)Nc2cc(F)ccc2-n2cccc23)c1 | nt | 0.05
CCC(Sc1nnc(C)c(=O)[nH]1)C(=O)Nc1ccccc1C#N (stereo not drawn) | 1.15 | nt
Fc1ccccc1-c1noc(N2CCOCC2)n1 | nt | 0.68
COC(=O)C1=C(C)NC2=C(C(=O)CCC2)C1c1cc([N+](=O)[O-])c(C)s1 (stereo not drawn) | -0.19 | 1.87
COc1ccccc1C1C(C(=O)OC2CCCCC2)=C(C)NC2=C1C(=O)CCC2 (stereo not drawn) | 0.33 | 0.27
CCOC(=O)c1ccccc1NC(=O)CC1Sc2ccc(C(F)(F)F)cc2NC1=O (stereo not drawn) | -1.45 | nt
Cc1nn(CCCC(=O)N2CCC(C(N)=O)CC2)c(=O)c2c1sc1ccccc12 | -2.9 | 2.16
Clc1cccc(N2CCN(c3ncnc4c3nc3n4CCCCC3)CC2)c1 | -0.41 | 0.63
O=c1c2nccnc2nc(SCc2ccc(Cl)cc2)n1Cc1cccs1 | nt | -0.46
N#CC1=C(N)OC2=C(C(=O)CCC2)C1c1ccc(-c2ccccc2)cc1 (stereo not drawn) | -0.35 | nt
CN(C1CCCCC1)S(=O)(=O)c1ccc(S(=O)(=O)N(Cc2ccc(F)cc2)C2CC2)cc1 | 0.52 | 0.09
Cc1cn(CCC(=O)Nc2nn(C)c3cccc(F)c23)c2ccccc12 | -2.37 | nt
O=C(c1ccccc1)c1ccc2nc(Nc3cccc(O)c3)c3nncn3c2c1 | nt | -0.7
Cn1c(=O)c2c(-c3ccccc3Br)n(-c3cccc4cccnc34)cc2n(C)c1=O | 15.6* | -2.59
Cc1nc(-c2ccc(C)c(N3CCN(C(=O)Nc4ccc(Br)c(C)c4)CC3)c2)no1 | nt | 2.54
Cc1nn(C(C)C(=O)N2CCC(C)CC2)c(=O)c2c1sc1ccccc12 (stereo not drawn) | -4.06 | 0.34
Cc1ccc(Nc2ncnc3c2cnn3C)cc1 | nt | 0.41
COC(=O)c1c(C)nc2n(Cc3ccccc3Cl)c3ccccc3n12 | -1.51 | nt
N/C(=N\S(=O)(=O)c1cc(C(F)(F)F)cc(C(F)(F)F)c1)N1CCSCC1 | -1.05 | nt
CCOC(=O)c1c(C)[nH]c(C)c1S(=O)(=O)N1CCCC(C(=O)N2CCc3ccccc32)C1 (stereo not drawn) | nt | 0.95
O=C(CSc1nc2ccccc2c2nc(-c3ccccc3)nn12)c1ccc(O)c(O)c1 | -0.53 | nt
O=C(Nc1ccc(F)cc1F)C1=Cc2cc(Br)ccc2OC1 | nt | -0.77
O=C(c1ccc(F)cc1)c1cn(Cc2ccccc2)c2ccccc2c1=O | -1.77 | 0.61
O=C(CSc1nnc(-c2ccc(Cl)cc2)o1)Nc1nnc(-c2ccco2)s1 | -1.84 | nt
COC(=O)c1ccc(Cn2nc(-c3ccccc3)ccc2=O)cc1 | 0.1 | -0.04
Cc1ccccc1-c1noc(C(C)NS(=O)(=O)c2ccccc2)n1 (stereo not drawn) | 1.18 | 1.08
COc1ccc(-c2cccc(NS(=O)(=O)c3cccs3)c2)nn1 | nt | 1.16
O=C(O)C1C2C=CC(O2)C1C(=O)NCc1ccccn1 (stereo not drawn) | 0.17 | -0.37
Cc1ccn2c(=O)c(NC(=O)c3ccc(F)c(F)c3)c(C)nc2c1 | nt | 2.05
CCCCOc1ncnc2c1sc1nc(-c3ccco3)c3c(c12)CC(C)(C)OC3 | -0.94 | 1.19
Cc1cc2[nH]c(=O)c(=O)[nH]c2cc1S(N)(=O)=O | 0.86 | 1.06
Cc1[nH]c2ccccc2c1C(=O)CN1CCN(Cc2ccc3c(c2)OCO3)CC1 | -1.64 | -0.78
CN(CC1CCCO1)C1CCN(S(=O)(=O)c2ccc3c(c2)CCCC(=O)N3)CC1 (stereo not drawn) | nt | -0.06
CN1CCN(CCCNC(=O)c2ccc(N3CCSc4ncccc43)s2)CC1 | nt | -0.96
CN(C)c1ccc(C(=O)CC2(O)C(=O)Nc3ccccc32)cc1 (stereo not drawn) | -1.37 | nt
CN1C(=O)c2ccccc2Sc2cc(NC(=O)c3ccnn3C)ccc21 | nt | 2.35
COc1ccc(C(=O)/C=C2\SC(=O)C(=O)N2c2ccccc2)cc1 | -1.48 | nt
COC(=O)c1ccc(CS(=O)c2ccc(Br)cc2)o1 (stereo not drawn) | nt | 1.82

Six compounds already listed, arranged by molecular weight, rising.
SMILES | CDC25B-CDK2 inh | HIV TAR-Tat
COC(=O)c1ccc(Cn2nc(-c3ccccc3)ccc2=O)cc1 | 0.1 | -0.04
Cc1ccn2c(=O)c(NC(=O)c3ccc(F)c(F)c3)c(C)nc2c1 | nt | 2.05
COc1ccc(C(=O)/C=C2\SC(=O)C(=O)N2c2ccccc2)cc1 | -1.48 | nt
O=C(Nc1ccc(F)cc1F)C1=Cc2cc(Br)ccc2OC1 | nt | -0.77
N/C(=N\S(=O)(=O)c1cc(C(F)(F)F)cc(C(F)(F)F)c1)N1CCSCC1 | -1.05 | nt
CCOC(=O)c1c(C)[nH]c(C)c1S(=O)(=O)N1CCCC(C(=O)N2CCc3ccccc32)C1 (stereo not drawn) | nt | 0.95

Remaining list, next part.
SMILES | CDC25B-CDK2 inh | HIV TAR-Tat
CC(C)c1onc(C(=O)N2C(C)CCCC2C)c1[N+](=O)[O-] (stereo not drawn) | -1.89 | -0.89
CCOc1ncnc2c1nnn2Cc1ccccc1Cl | -1.39 | nt
CCCCN(C)Cc1c(O)ccc2c(=O)c(Oc3cc(C)cc(C)c3)coc12 | -1 | nt
N#CC1=C2SCN(Cc3cccnc3)CN2C(=O)CC1c1ccc(F)cc1 (stereo not drawn) | 0.53 | 1.05
O=C(c1ccc2c(c1)OCCO2)N1CCCCC1 | -0.39 | nt
CCOc1ccc2nc(NC(=O)c3noc4c3CCc3sccc3-4)sc2c1 | nt | -0.88
Cc1ccccc1-c1noc(-c2cccnc2N2CCN(c3ccccc3)CC2)n1 | -0.2 | 0.77
COc1ccc(OC)c(CN2CCc3nc(Nc4ccc5c(c4)OCCO5)ncc3C2)c1 | nt | 0.85
COc1ccc(N2CCCS2(=O)=O)cc1NC(=O)COc1ccc(F)cc1 | nt | -0.68
CCC(C)NC(=O)c1ccc(C)c(NC(=O)C2=C(C)OCCS2)c1 (stereo not drawn) | nt | 1.31
CCOc1ccc2nc(Nc3ncc4c(n3)CC(c3cccs3)CC4=O)nc(C)c2c1 (stereo not drawn) | -1.19 | -1.41
Cc1ccc(C)c(Nc2c3c(nc4nncn24)CCC3)c1 | -2.39 | 1.37
Cc1ccc2nc(C3=C(O)CN(CC(C)C)C3=N)[nH]c2c1 | -5.79 | 0.13
O=C(O)c1cc([N+](=O)[O-])ccc1NCCc1ccccc1 | -0.63 | nt
O=C1N(Cc2ccccc2Cl)c2ccccc2S(=O)(=O)N1Cc1ccc(F)cc1 | nt | 2.61
O=C(Nc1sc2c(c1C(=O)Nc1ccc(Br)cc1)CCCCC2)c1ccco1 | -0.45 | -2.38
Cc1nn(-c2ccccc2)c(Cl)c1C1C(C#N)=C(N)Oc2n[nH]c(C)c21 (stereo not drawn) | -0.77 | nt
Cc1cc2c(cc1S(=O)(=O)Nc1c(C)cccc1C)OCCN2C | nt | 2.78
O=C(Cn1cnc2c(oc3ccccc32)c1=O)N1CCCCC1 | -0.87 | -0.51
CCOC(=O)c1c(C)oc2nc(C)nc(NCCO)c12 | -0.14 | 0.16

Among those listed so far, 3 contain a nitro group on carbon:
SMILES | CDC25B-CDK2 inh | HIV TAR-Tat
COC(=O)C1=C(C)NC2=C(C(=O)CCC2)C1c1cc([N+](=O)[O-])c(C)s1 (stereo not drawn) | -0.19 | 1.87
CC(C)c1onc(C(=O)N2C(C)CCCC2C)c1[N+](=O)[O-] (stereo not drawn) | -1.89 | -0.89
O=C(O)c1cc([N+](=O)[O-])ccc1NCCc1ccccc1 | -0.63 | nt

The main list resumes, starting three compounds before the break.
SMILES | CDC25B-CDK2 inh | HIV TAR-Tat
Cc1cc2c(cc1S(=O)(=O)Nc1c(C)cccc1C)OCCN2C | nt | 2.78
O=C(Cn1cnc2c(oc3ccccc32)c1=O)N1CCCCC1 | -0.87 | -0.51
CCOC(=O)c1c(C)oc2nc(C)nc(NCCO)c12 | -0.14 | 0.16
CC1(C)Cc2nc3oc4c(SCC(=O)Nc5ccccc5)ncnc4c3cc2CO1 | nt | -0.72
C=CCSc1nnc2c(n1)OC(c1ccccn1)N(C(C)=O)c1ccccc1-2 (stereo not drawn) | -2.67 | 0.19
Cc1cccc(OCc2cc(=O)n3c(-c4ccccc4)csc3n2)c1 | -9.5 | 0.09
CCCCCCCCCCCC(=N)OC | -0.74 | nt
O=C(Nc1ccc(Cl)cc1)c1cc(S(=O)(=O)N2CCCC2)c[nH]1 | nt | 1.17
Cc1ccccc1CNCC1CCCO1 (stereo not drawn) | 0.13 | -0.02
Cn1ncc2c(NNC(=O)c3cc(Cl)cc(Cl)c3)ncnc21 | -0.87 | nt
CC(C)CC(=O)Nc1ccc2nc(SCC(=O)N3CCOCC3)sc2c1 | -0.95 | 0.93
COc1ccc(Br)c(C(=O)c2nnn3c2nc(N)c2c(Cl)cccc23)c1 | -3.83 | nt
Brc1ccccc1-c1nn2c(Cn3nnc4ccccc43)nnc2s1 | -1.9 | 2.32
Cc1cc(NS(=O)(=O)c2cc(-c3ccc(=O)[nH]n3)cc(C)c2C)ccc1Br | nt | 1.9
CCN(CC)C(=O)c1oc2ccc(S(=O)(=O)N3CCCC3)cc2c1C | 0.13 | nt
COc1cc2c(cc1OC)C(C)N(C(=O)c1nn(-c3ccccc3)nc1C)CC2 (stereo not drawn) | -1.49 | nt
CCCN(CCS(=O)(=O)N1CCNCC1)S(=O)(=O)c1ccc(Br)cc1 | nt | 0.77
Cc1nc2cc(S(=O)(=O)Nc3ccccc3)ccc2n1-c1ccccc1 | -2.08 | 0.02
CC1CCN(C(=O)C2CCN(C(=O)c3ccc(-n4ccc5ccccc54)s3)CC2)CC1 | nt | 0.1
COc1ccc(NC(=O)Cn2nc3c4sccc4ncn3c2=O)cc1OC | nt | 1.1
O=C(Oc1cccc(NC2=NS(=O)(=O)c3ccccc32)c1)C1CC(=O)N(c2ccc(Cl)cc2)C1 (stereo not drawn) | -0.73 | nt
Clc1cccc(-n2ncc3c(N4CCc5ccccc54)ncnc32)c1 | nt | 0.59
Cc1ccsc1CNC(=O)c1sccc1Cl | -1 | nt
